PrP 5UTR inh = inhibition of PrP 5' UTR reporter expression | 340,000 tested, 0.35% active | AID 488862, 2010 | cell-based PrP 5' UTR mRNA reporter, plate reader | inhibition, % (concentration not given with the values);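 active = every replicate at 50% or more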;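 also: 0 = median of the neutral control wells; tested in H4 reporter cells; numbers are from one replicate; inactives centre near -14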
BJeLR viability = MLPCN primary cell-based screen for lethality selective to Ras in HRASV12 cells. AID 1554, 2009. 300,000 tested, 0.17% active. BJeLR (HRASV12) viability, CellTiter-Glo ATP luminescence, 48 h; reference of the scale not given here. inhibition, % (concentration not given with the values);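 active = replicate mean above 50%; inconclusive = above 50% but judged a plate artefact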;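 also: 50 nL library stock added to about 25 µL; numbers are from one replicate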
Bead autofluor = flagged as autofluorescent in microsphere protease counterscreen. 360,000 tested, 3.1% active. fluorescence intensity (test concentration not listed). compound autofluorescence counterscreen, microsphere flow cytometry; active compounds read high;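 active = at least 3 SD above the mean of all compounds, about 16000 in these data; inconclusive = too few beads counted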;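 also: 100 nL of 1 mM stock went into each well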
Mtb hypoxia inh = PubChem AID 1159583; M. tuberculosis hypoxia-regulated fluorescent reporter, fluorescence; fluorescence inhibition, % (test concentration not listed); 300,000 tested, 0.1% active;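 active = 35 to 45% if threefold the growth effect, above 45% if 1.5-fold the growth effect; inactive = the rest, general growth blockers included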;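 also: wells of about 50 µL received 100 nL stock; 0% = vehicle wells and 100% = reference inhibitor wells; whole bacteria with a GFP reporter of the hypoxia response; strong numbers were not always called active; many hits fall short of the cut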
RN4220 kill = growth inhibition of S. aureus RN4220, primary screen, OD600 | 16 h | inhibition, % (concentration not given with the values) | 330,000 tested, 0.33% active | AID 1259311, 2017;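 active = z-score of -3 or lower and OD600 up to 0.18 on both plates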;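 also: plate controls were untreated cells for no effect and reference antibiotic for full effect; stock transfer was 100 nL into about 80 µL; one replicate is shown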
Sa ugtP lethal = growth inhibition of ugtP-null S. aureus, primary screen, RN4220 ugtP deletion, OD600; AID 1259309, 2017; 16 h; some inactives read as strong as hits; growth inhibition, % (no concentration beside the values); 330,000 tested, 0.54% active;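 active = z-score under -3 and OD600 up to 0.15 on both plates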;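 also: plate controls were untreated wells for no effect and antibiotic for full effect; wells of about 80 µL received 100 nL stock; the first replicate is given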
Mtb hypoxia inh growth = second read-out of Mtb hypoxia inh, no call of its own (marks repeat the call); growth inhibition, %; measured here: M. tuberculosis growth (absorbance);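 0% = vehicle and 100% = reference antibiotic; read after six days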
* marks the source's active call; other numbers are inactive results; u = inconclusive; x = no result given. The order is random; 4.1% or so of the library scored in one or more.

SMILES	PrP 5UTR inh	BJeLR viability	Bead autofluor	Mtb hypoxia inh	Mtb hypoxia inh growth	RN4220 kill	Sa ugtP lethal
CC(Sc1nccn1C)C(=O)Nc1ccc(C(N)=O)cc1 (stereo not given)	-6	-2	u	-3	8	-0.7	6
COc1ccccc1/C=C/C=NNC(=O)Cc1cccn1C	x	x	x	-6	-1	7.9	0
CC1(C)CC(N=C2C([N+](=O)[O-])=CC=C3C2=NC2(CCCCC2)N3O)CC(C)(C)N1	9	-4	4243	14	2	5.0	3
CCOc1ccc(NC(=S)NCc2ccc3[nH]c(C)cc3c2)cc1	-18	9	2813	x	x	x	x
CSc1nnc(SCC2=NNC(=O)SC2)s1	-17	8	2524	8	5	7.2	6
O=C(COC(=O)c1ccccc1S(=O)(=O)N1CCCCC1)NCC(F)(F)F	-9	4	3596	x	x	9.6	8
Cc1ccc2c(c1)SC1=NC(c3ccccc3)(C(F)(F)F)NC(=O)N12 (stereo not given)	x	0	x	-3	-2	-2.5	-23
CCOC(=O)N1CCC(NC(=O)CSCc2nc(-c3ccc(OCC)cc3)oc2C)CC1	1	9	4349	-5	-2	5.2	3
CC(=O)NC(Cc1ccc(F)c(F)c1)C(=O)NC1CCN(C(=O)c2ccc(C)cc2)CC1 (stereo not given)	-16	6	4414	7	11	1.3	5
Cc1ccc(NC(=O)c2cc(C)no2)cc1	-24	-3	3183	6	5	-1.3	8
O=C(NCCNCCO)C1(C(F)(F)F)C/C(=C\Cc2ccccc2)CCCO1 (stereo not given)	-5	9	4154	x	x	x	x
O=C(CSc1ncnc2c1oc1ccccc12)Nc1ccc2c(c1)OCCO2	-13	-2	17420*	2	-6	3.2	-3
O=S(=O)(NN=Cc1cn(Cc2ccccc2)c2ccccc12)c1ccccc1	x	x	x	3	-6	-3.5	-14
O=C(NCc1cccnc1)c1ccccc1Br	77*	-2	8381	10	5	4.8	2
CC(C)(C)CC(=O)NCCc1csc(-c2ccccc2)n1	-11	-4	3710	11	11	3.2	2
COc1ccc(/C=C(\NC(=O)c2cccs2)C(=O)NN)cc1OC	-4	4	3764	6	13	2.4	13
CCc1ccccc1NS(=O)(=O)c1ccc2c(c1)C(C)(C)C(=O)N2C	-27	-3	5735	x	x	12	7
Cc1c(NC(=O)OCCNC(=O)Nc2ccccc2)sc(=S)n1C	-16	7	2666	13	16	2.1	3
CC(C)(C)C1C=C(C(=O)NCc2nc3ccccc3[nH]2)OC(OCCCCO)C1 (stereo not given)	x	x	x	0	-3	9.9	3
O=C1CNC(=O)N1c1ccc(Cl)cc1	x	0	3901	-6	-1	-0.3	3
Cc1cccc(N(Cc2cc3ccccc3[nH]c2=O)C(=O)c2ccco2)c1C	7	3	2195	2	7	-5.5	-11
O=c1oc2ccccc2c(N2CCCCC2)c1CN1CCCC1	-30	-2	10748	1	-4	2.4	6
CCN(CC)CCN1C(=O)C(=O)/C(=C(/O)c2ccc(F)cc2)C1c1ccncc1 (stereo not given)	-2	-4	2836	6	8	4.3	4
CCOC(=O)COc1cccc2c(=O)n(CC(=O)N3CCC(C)CC3)ccc12	-12	3	6721	-3	5	-6.5	-4
CC(NC(=O)C1CCCN(S(=O)(=O)c2cccs2)C1)c1ccccc1 (stereo not given)	-20	3	6344	5	8	2.7	10
O=c1cc(C(F)(F)F)[nH]c2ccc(C(F)(F)F)cc12	6	-1	4610	-9	-19	49	30
COCCN(C(=O)Nc1ccccc1)C(C)c1cccnc1 (stereo not given)	-6	-5	5968	0	0	0.6	2
CCN(C[C@H]1N[C@@](C)(C(=O)OC)[C@H]2C(=O)N(Cc3ccccc3)C(=O)[C@@H]12)C(=O)Nc1ccccc1	-15	x	3822	-6	4	3.4	1
OCC1OC(n2cnc3c(NC4CCCCC4)ncnc32)C(O)C1O (stereo not given)	-5	5	4034	x	x	1.3	-4
O=C(OCC(=O)N1CCCCC1)c1ccc(OC(F)(F)F)cc1	-22	x	4275	5	2	3.3	9
O=C(c1cccc(C(F)(F)F)c1)N1CCN(c2cc(=O)[nH]nc2-c2ccccc2)CC1	-16	-10	6562	0	3	2.1	17
CCOC(=O)COc1nc(C)cc(C(F)(F)F)c1C#N	-7	2	6307	-7	0	0.4	-3
COc1ccc(C(=O)N/N=C/c2cccnc2)cc1	-12	-2	3572	x	x	x	x
COc1ccccc1C=NNC(=O)c1csc(C)c1C	x	x	x	3	2	0.2	16
COc1cccc(N2CCN(CC(=O)NCc3ccccc3)CC2)c1	0	4	3236	16	5	2.1	8
CCC(=O)Nc1ccc(NC(=O)CSc2nc3c(c(=O)n(C)c(=O)n3C)n2CC)cc1	2	1	5605	3	6	2.7	3
COc1ccc(NC(=O)CC2C(=O)OCC3CCCCN32)cc1Cl (stereo not given)	-22	5	2406	15	8	6.8	0
CCC(CC)NC(=O)C1CCN(c2ccc(S(=O)(=O)N3CCOCC3)cc2[N+](=O)[O-])CC1	-10	x	u	11	6	5.2	6
COc1ccc(C)c2sc(=NC(=O)c3ccc(C(C)=O)cc3)n(C)c12	-78	25	4118	-17	-8	8.1	-3
CC(C)C(=O)NNC(=O)c1c(O)c2ccccc2[nH]c1=O	-4	-4	3848	-1	0	0.2	0
CCN(C[C@H]1N[C@@](Cc2ccccc2)(C(=O)OC)[C@H]2C(=O)N(Cc3ccccc3)C(=O)[C@@H]12)S(=O)(=O)c1ccc(OC(F)(F)F)cc1	-18	x	4452	-10	1	6.4	3
Cc1ccc(N2CC(C(=O)OCc3ccccc3)CC2=O)cc1 (stereo not given)	-15	-3	2482	0	4	7.8	3
CCn1cc(-c2nnnn2-c2ccc(Cl)cc2)c(=O)c2ccccc21	-22	-11	6455	9	6	5.1	8
Cc1ccc(NC(=O)/C(=C/c2ccncc2)NC(=O)c2ccccc2)cc1	-18	6	2544	-4	11	1.4	-5
O=C(CN1CCN(Cc2ccccc2)CC1)Nc1cccc(Cl)c1	-15	-5	4227	6	-5	-1.2	5
CCc1nc(C)cn1S(=O)(=O)c1cc(Br)c(C)cc1OC	-17	-3	2851	x	x	-3.2	-16
N#CCCN1CCN(S(=O)(=O)c2ccc(S(=O)(=O)N3CCCCCC3)cc2)CC1	-12	-12	5422	x	x	4.7	7
COC(=O)c1ccc(Oc2nc(SC)nc(N(C)C)n2)cc1	x	6	5865	0	17	-0.3	11
COc1ccc(N2CC(C(=O)N[C@@H](C)C(=O)N3CCCCC3)CC2=O)cc1 (stereo not given in full)	-21	1	5097	0	2	0.4	-1
COc1cccc(CC2(CO)CCN(Cc3ccc4cccc(F)c4n3)CC2)c1	-22	-6	4721	11	7	6.7	12

(further entries)
SMILES	PrP 5UTR inh	BJeLR viability	Bead autofluor	Mtb hypoxia inh	Mtb hypoxia inh growth	RN4220 kill	Sa ugtP lethal
O=C(CCc1nc2ccccc2c(=O)[nH]1)Nc1cc(C(F)(F)F)ccc1N1CCCC1	5	x	3961	1	0	4.3	-1
Cc1ccc(N(C(=O)C(F)(F)F)C(C(=O)NC2CCCCC2)c2cccs2)cc1C (stereo not given)	-9	-10	10552	4	11	3.2	0
COc1ccc(S(=O)(=O)N2CCN(CCO)CC2)cc1-c1nnc2c3ccccc3c(C)nn12	-4	-7	4387	6	2	5.2	11
Cc1cc(NC(=O)CSc2ccc3nnc(CCNS(=O)(=O)c4ccccc4)n3n2)no1	-14	0	2618	4	8	1.0	15
Cc1cc(C)nc(N2CCC(C(=O)Nc3nnc(C)s3)CC2)n1	-33	-3	18862*	1	18	6.5	-12
O=C(C1CCCN1S(=O)(=O)c1ccc(Br)cc1)N1CCOCC1 (stereo not given)	-19	5	2582	4	-7	-3.4	-2
COc1ccc(CCNC(=O)c2ccc(Cl)c(S(=O)(=O)N(C)c3ccccc3)c2)cc1	-24	-11	9294	6	6	3.5	-11
CC1C(=O)N2CCCc3cc(S(=O)(=O)N(C)CCC#N)cc1c32 (stereo not given)	-3	2	5973	-3	1	0.3	-5
Cc1nn(-c2ccccc2)c(NC(=O)C(C)C)c(-c2ccccc2)c1=O	x	-4	x	-9	-2	3.5	1
COc1cc(-c2noc(CCCC(=O)Nc3cccnc3)n2)cc(OC)c1OC	-8	-6	6119	11	8	5.9	7
COc1ccc(-c2cc3c(=O)n(CC(=O)N4CCCCC4)ncn3n2)cc1	-16	0	4509	2	1	5.1	9
COc1cc(/C=C(\C(=O)O)c2ccc(S(=O)(=O)N3CCCC3)s2)ccc1OCCC(C)C	-38	x	3405	7	7	12	-6
O=C(NN=Cc1ccc(-c2cccc(Cl)c2)o1)C(=O)NC1CCCC1	x	x	x	7	0	0.0	-4
CC(=O)O[C@@]1(C)C[C@@H](O)[C@]2(O)C=CO[C@@H](O[C@@H]3O[C@H](CO)[C@@H](O)[C@H](O)[C@H]3O)[C@@H]21	-16	x	4174	2	-2	-11	-5
O=C(Nc1ccc(S(=O)(=O)Nc2ncccn2)cc1)c1ccc(Br)s1	-19	1	16878*	13	10	-1.4	30
COc1ccc(Nc2ccc(S(=O)(=O)N3CCCCC3)cc2[N+](=O)[O-])cc1Cl	-7	-1	8066	6	8	9.7	4
Cc1ccccc1NC(=O)C1C2C=CC(C3CC23)C1C(=O)O (stereo not given)	-23	1	4113	0	3	2.9	4
Cc1cc(C=C2C(=O)CCCC2=O)c(C)n1-c1ccccc1	-3	-10	3543	-1	7	0.9	-8
Cc1ccc(C(=O)COC(=O)CNC(=O)c2ccc(Br)o2)cc1[N+](=O)[O-]	-24	-4	4160	-6	-2	1.3	-2
CCCCNC(=O)CSc1nc2ccsc2c(=O)n1CCCC(=O)NCCc1ccc(S(N)(=O)=O)cc1	-12	1	4985	-2	9	-0.3	1

Another view of seven compounds above.
SMILES | PrP 5UTR inh | BJeLR viability | Bead autofluor | Mtb hypoxia inh | Mtb hypoxia inh growth | RN4220 kill | Sa ugtP lethal
CC(=O)O[C@@]1(C)C[C@@H](O)[C@]2(O)C=CO[C@@H](O[C@@H]3O[C@H](CO)[C@@H](O)[C@H](O)[C@H]3O)[C@@H]21 | -16 | x | 4174 | 2 | -2 | -11 | -5
O=C(Nc1ccc(S(=O)(=O)Nc2ncccn2)cc1)c1ccc(Br)s1 | -19 | 1 | 16878* | 13 | 10 | -1.4 | 30
COc1ccc(Nc2ccc(S(=O)(=O)N3CCCCC3)cc2[N+](=O)[O-])cc1Cl | -7 | -1 | 8066 | 6 | 8 | 9.7 | 4
Cc1ccccc1NC(=O)C1C2C=CC(C3CC23)C1C(=O)O (stereo not given) | -23 | 1 | 4113 | 0 | 3 | 2.9 | 4
Cc1cc(C=C2C(=O)CCCC2=O)c(C)n1-c1ccccc1 | -3 | -10 | 3543 | -1 | 7 | 0.9 | -8
Cc1ccc(C(=O)COC(=O)CNC(=O)c2ccc(Br)o2)cc1[N+](=O)[O-] | -24 | -4 | 4160 | -6 | -2 | 1.3 | -2
CCCCNC(=O)CSc1nc2ccsc2c(=O)n1CCCC(=O)NCCc1ccc(S(N)(=O)=O)cc1 | -12 | 1 | 4985 | -2 | 9 | -0.3 | 1

The list continues:
SMILES	PrP 5UTR inh	BJeLR viability	Bead autofluor	Mtb hypoxia inh	Mtb hypoxia inh growth	RN4220 kill	Sa ugtP lethal
COc1ccc(CN2CCN(CCCc3ccccc3)C(CCO)C2)cc1OC (stereo not given)	9	0	4445	4	-3	4.8	11
CCOc1ccc(CCNC(=O)c2ccc(CS(=O)Cc3ccccc3Cl)o2)cc1 (stereo not given)	-8	4	4488	10	5	-3.2	14
CC1Nc2ncnc(N3CCN(c4ccccc4)CC3)c2N(Cc2ccc(Cl)cc2)C1=O (stereo not given)	4	-2	3675	4	8	-5.1	-28
COc1cc([N+](=O)[O-])cc2sc(NC(C)=O)nc12	-11	5	3644	2	5	2.7	7
COC(=O)C1=CNC=C(C(=O)OC)C1c1ccc(C(=O)OC)cc1	-32	8	u	4	1	3.9	-12
CCOC(=O)N1CCN(C(=O)COc2ccc(S(=O)(=O)NCc3ccccc3)cc2)CC1	-6	-2	17159*	6	4	5.7	4
Cc1cccc(NC(=O)C2CCCN(C(=O)Nc3ccc(F)cc3)C2)c1C (stereo not given)	-11	-6	3183	4	-1	5.1	5
COC(=O)CC(c1ccc(C#N)cc1)n1c(C)ccc1C (stereo not given)	-22	6	4059	6	-3	11	5
CCOC(=O)c1[nH]c2ccccc2c1NC(=O)c1cc(OC)c(OC)c(OC)c1	-24	-9	11921	8	6	0.5	3
Fc1ccc(CNC(=S)Nc2ccccc2F)cc1	-16	-4	x	3	-4	4.3	11
Cc1cccc(N2CCN(C(=O)c3cccc(S(=O)(=O)N4CCCCC4)c3)CC2)c1C	-23	x	3529	17	10	2.8	1
